# NS1 function inh = inhibitors of influenza NS1 protein function. S. cerevisiae slowed by influenza A NS1, growth recovery by OD600. Potency, µM (top dose mostly 46.1 µM), for inactives: at the highest dose activity, positive = more growth. 270,000 compounds, 0.4% hits; active means well fitted rising curve with a large enough effect; inconclusive means small, poorly fitted or top-dose-only effect; inactive means no such curve, though single readings can be large or run the other way; also: nearly all actives have a fitted effect of over 50% in size
#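 A cell-based growth assay was used: compounds that relieve NS1-induced slow growth of budding yeast raise OD600. Assay medium was yeast nitrogen base with ammonium sulphate and -URA supplement, pH 6.0, with 2% galactose.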
# LASV entry inh = Lassa virus entry inhibition | Lassa virus pseudotype entry inhibition, cell reporter; control for the full effect not named in the record | Potency, µM (doses to about 37.9 µM), for the others: top-dose activity change, negative = inhibition, actives largely listed as inhibitors | 300,000 compounds, 1.2% hits; active means well fitted inhibition curve with a large enough effect; inconclusive means small, poorly fitted or top-dose-only effect, or effect the other way; inactive means flat fitted curve, though single readings scatter; tested in HEK293 cells; also: % is scaled to controls: 0 for no effect and ±100 for the full control effect; nearly all actives have a fitted effect of over 50% in size; luciferase read-out
# Cruzain inh noDet = blocks cruzain activity in detergent-free assay. P25779. purified cruzain, Z-FR-AMC fluorescence, no detergent. Potency, µM, without a hit: max response, negative = inhibition, actives largely listed as inhibitors. 200,000 compounds, 2.3% hits;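 also: plate controls were enzyme without inhibitor for no effect and buffer without enzyme for full effect; nearly all actives have a fitted effect of over 40% in size; top concentration of the series not given in the record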
# Target sequence (P25779 123-467 limits assumed): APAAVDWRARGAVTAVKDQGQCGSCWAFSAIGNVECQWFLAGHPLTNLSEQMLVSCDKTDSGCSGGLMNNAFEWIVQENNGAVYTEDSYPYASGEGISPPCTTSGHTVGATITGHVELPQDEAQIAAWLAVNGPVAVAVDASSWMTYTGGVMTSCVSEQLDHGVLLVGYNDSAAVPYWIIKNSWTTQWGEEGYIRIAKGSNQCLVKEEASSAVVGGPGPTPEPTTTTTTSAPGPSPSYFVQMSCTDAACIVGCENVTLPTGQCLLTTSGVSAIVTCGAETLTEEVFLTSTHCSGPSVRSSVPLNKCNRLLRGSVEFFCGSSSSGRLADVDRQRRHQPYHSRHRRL
#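 Detergent-free condition (0.00005% Triton X-100) in acetate buffer pH 5.5 with DTT. 1.5 nM enzyme and compound were pre-mixed 15 min, then 2 uM Z-FR-AMC substrate added; reaction progress from fluorescence change between first and third reads (60 s).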
# StopGo reporter = lowers the luciferase signal of an FMDV 2A StopGo reporter. human cells with a luciferase reporter of 2A StopGo recoding; control for the full effect not named in the record. Potency, µM (top dose mostly 57.9 µM), inactives show at the top dose signal change, negative = less light. 410,000 compounds, 1.2% hits. AID 1159524; active = well fitted falling curve with a large enough effect; inconclusive = small, poorly fitted or top-dose-only effect; inactive = no such curve, though single readings can be large or run the other way; tested in HEK293T cells; also: % is scaled to controls: 0 for no effect and ±100 for the full control effect; nearly all actives have a fitted effect of over 45% in size; luciferase light after 4 h
# RE007 growth inh = less growth of the S. pombe RE007 Vpr strain; S. pombe RE007 Vpr strain, BacTiter-Glo ATP luminescence, 24 h; control for the full effect not named in the record; AID 651644; Potency, µM (highest dose often 92.2 µM), without a hit: top-dose activity change, negative = less growth; 360,000 compounds, 0.21% hits; active = well fitted falling curve with a large enough effect; inconclusive = small, poorly fitted or top-dose-only effect; inactive = no such curve, though single readings can be large or run the other way;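 also: % is scaled to controls: 0 for no effect and ±100 for the full control effect; nearly all actives have a fitted effect of over 50% in size; the assay follows cell death caused by Vpr and the record does not say whether a fall means rescue or toxicity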
#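 Fission yeast RE007 carrying one integrated HIV-1 vpr copy, seeded at OD 0.01 in PMG+AL medium with 23 nL pinned compound. Grown 24 h at 30 degrees; viability read by BacTiter-Glo luminescence after 5 min.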
# MARV entry inh = inhibitors of Marburg virus binding or cell entry | Marburg virus pseudotyped entry inhibition, cell reporter; control for the full effect not named in the record; about a third of the inactives were read at about 46 µM | Potency, µM (titrated, usually from 37.8 µM), without a hit: at the highest dose activity change, negative = inhibition, most hits filed as inhibitors | 300,000 compounds, 1.8% hits | AID 540276; active = well fitted inhibition curve with a large enough effect; inconclusive = small, poorly fitted or top-dose-only effect, or effect the other way; inactive = flat fitted curve, though single readings scatter; tested in HEK293 cells; about a fifth of its hits are not listed in these tables; also: % is scaled to controls: 0 for no effect and ±100 for the full control effect; luciferase read-out
# SARS PLP yeast = SARS-CoV PLP inhibition in yeast | S. cerevisiae expressing SARS-CoV PLpro, growth rescue; control for the full effect not named in the record | Potency, µM (series often up to 32.9 µM), inactives show at the top dose activity, positive = growth rescue | 330,000 compounds, 0.19% hits | AID 485353; active means well fitted rising curve with a large enough effect; inconclusive means small, poorly fitted or top-dose-only effect; inactive means no such curve, though single readings can be large or run the other way; also: 0% is about no effect; nearly all actives have a fitted effect of over 55% in size; growth read by luminescence after 48 h
# Cruzain inh Det = cruzain (T. cruzi) inhibition with detergent | Potency, µM, for the others: max response, negative = inhibition, most hits filed as inhibitors | P25779 | purified cruzain, Z-FR-AMC fluorescence, 0.01% Triton | 200,000 compounds, 0.43% hits;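 also: plate controls were neutral wells for no effect and buffer without enzyme for full effect; nearly all actives have a fitted effect of over 40% in size; top concentration of the series not given in the record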
#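 Enzyme 1.5 nM, Z-FR-AMC 2 uM, NaOAc 100 mM pH 5.5, DTT 5 mM, Triton X-100 0.01%; 15 min RT compound preincubation; kinetic ex360/em450, 60 s delta.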
# The depositor's hits bear a star; ? = inconclusive; . = not tested or not shown; & = joins results of further samples; [ ] = remark or other dose. Unless noted, calls follow the shape of the dose curve; as a rule, active = well fitted curve in the direction sought with a large enough effect; inconclusive = small, poorly fitted or top-dose-only effect, or another doubt; inactive = no such curve, though single readings can be large; an effect the other way counts as inactive or inconclusive. Potency is read from the fitted curve at half-maximal effect.
SMILES,NS1 function inh,LASV entry inh,Cruzain inh noDet,StopGo reporter,RE007 growth inh,MARV entry inh,SARS PLP yeast,Cruzain inh Det
O=C(CCn1c(=O)[nH]c2ccsc2c1=O)Nc1ccc(F)c(F)c1,15.4%,21.3%,-4.6%,-10.4%,14.3%,-16.0%,-0.2%,-2.7%
CC(C)(C)c1ccc(CSC2=Nc3ccccc3C3=NC(CC(=O)NCc4cccs4)C(=O)N23)cc1 (stereo unspecified),.,-15.1%[46.1 µM],5.6%,-26.6%,.,.,.,-14.4%
C=CCc1cccc2cc(C(=O)Nc3ccc(F)cc3)c(=O)oc12,-7.2%,12.7%[46.1 µM],-2.8%&-13.8%,57.8%&37.0%[activator],22.4%,?,11.4%,-2.9%&-0.2%
CCOC(=O)c1c(C)[nH]c(C2=NNC(=NC(C)COC)SC2)c1C (stereo unspecified),.,-26.2%[46.1 µM],.,-9.5%,-25.0%,?,1.6%,.
Cc1cc(C(=O)OCC(=O)Nc2ccccc2Cl)c(C)o1,.,9.4%,.,33.5%[activator],-0.1%,-1.6%,-0.9%,.
COCCN1C=C(C(=O)OC)C(c2cc3c(cc2Br)OCO3)C(C(=O)OC)=C1,-32.2%,-5.8%,?,-12.9%,5.7%,2.8%,7.5%,-4.7%
N#CCCN1CCC(NC(=O)OCc2ccccc2)CCC1=O (stereo unspecified),-5.4%,.,.,-1.4%,-4.1%,.,2.9%,.
CC(C)NC(=O)[C@@H]1C[C@@]1(C)[C@@H](NC(=O)OCc1ccccc1)c1ccccc1,-23.8%,?,-2.1%&-2.6%,-14.6%,-12.2%,1.9%,-16.2%,-0.4%&-5.6%
COc1ccc(-c2cc(C(=O)NCC3CCCO3)c3cc(C(C)C)ccc3n2)cc1 (stereo unspecified),7.7%,.,.,-5.7%,8.5%,.,-5.9%,.
CCOc1ccc2nc(NC(=O)c3ccco3)sc2c1,-28.5%,.,.,-26.7%,?,?,-14.8%,.
CCOc1ccccc1NC(=O)c1c(NC(=O)COc2ccccc2)sc2c1CCCC2,.,-7.2%[46.1 µM],1.3%,-21.5%,.,.,.,-0.7%
CCOc1ccc(N(C(=O)c2snc(C(N)=O)c2N)C(C(=O)NCC2CCCO2)c2ccc(C)o2)cc1 (stereo unspecified),11.8%,.,.,0.1%,29.1%,-6.5%[46.1 µM],-6.3%,.
CS(=O)(=O)N(CC(=O)NCc1ccco1)c1cccc([N+](=O)[O-])c1,1.7%,.,.,0.6%,-10.6%,.,-0.2%,.
C=CCc1ccccc1OCC(O)CNC (stereo unspecified),-0.8%,17.3%,-7.1%,-2.9%,-2.2%,5.1%,-3.8%,-0.2%
CCOC(=O)N1CCN(C(=O)CCC(=O)N2CCOc3ccc(C)cc32)CC1,5.62µM*,6.0%,8.2%,9.5%,1.8%,1.3%,6.6%,0.8%
CCOC(=O)C1=C(C)NC(=O)NC1c1c(OCC(=O)N2CCCCC2)ccc2ccccc12 (stereo unspecified),5.1%,14.1%,?,3.8%,1.1%,?,2.9%,-4.2%
Cc1ccc2c(c1)N(C(=O)c1ccc(F)cc1)C(C)(C)CC2(C)c1ccccc1 (stereo unspecified),.,-10.4%[46.1 µM],-15.2%,?,.,.,.,-0.9%
CC[C@@]12C(=O)N(c3cccc(C)c3)C(=O)N1[C@H](c1ccc(Br)cc1)[C@@H]1C(=O)N(C(C)(C)C)C(=O)[C@@H]12,17.2%,.,.,-18.1%,7.5%,.,2.5%,.
Cc1cc(Br)cc(/C=N/NC(=O)c2ccc3c(c2)OCO3)c1O,6.1%,.,.,52.9%[activator],-8.8%,.,-0.1%,.
Cn1c(=O)c2c(nc(SCC(=O)NCC3CCCO3)n2Cc2ccc(F)cc2)n(C)c1=O (stereo unspecified),-1.4%,5.4%,.,-5.6%,11.8%,-29.9%[46.1 µM],1.0%,.
Cc1ccc(S(=O)(=O)N(C)Cc2ccc(-c3nnco3)cc2)cc1,-5.5%,5.7%,7.1%,-2.7%,3.3%,-11.2%[46.1 µM],5.8%,0.7%
COc1ccc(/C=N/NC(=O)CNC(=O)/C=C/c2ccco2)cc1OC,11.1%,0.3%,.,12.1%,5.8%,?,-4.5%,.
Cc1cc(C)c(NC(=O)c2ccc3c(c2)CCN3S(C)(=O)=O)c(C)c1,-1.0%,.,.,-15.5%,1.1%,.,-0.9%,.
CC(=O)N(CCCN(C)C)Cc1ccccn1,2.0%,18.3%[46.1 µM],.,-14.4%,4.2%,1.6%[46.1 µM],0.7%,.
O=C(O)CCC(=O)N1CCCC1C(=O)O (stereo unspecified),-11.1%,-1.4%,3.4%,.,.,-11.7%&-11.7%&-11.7%&15.3%,.,2.6%
Cc1ccc(NC(=S)N=Nc2c(O)n(C)c3ccc(S(=O)(=O)N4CCOCC4)cc23)cc1,?,?,-0.6%,4.3%,-3.4%,-12.2%,20.9%,-6.7%
O=C(NCc1ccccn1)Nc1cccc([N+](=O)[O-])c1,9.3%,-5.2%[46.1 µM],.,6.1%,-1.5%,19.7%[46.1 µM],0.8%,.
CC(C)(C)OC(=O)N1CCC(c2c(C(=O)N3CCc4ccccc4C3)cnn2-c2ccc(Cl)cc2)CC1,.,?,-3.8%,-26.8%,.,.,.,-0.2%
COc1ccc(C2(N3CCN(c4cccc(C)c4C)CC3)C(=O)c3ccccc3C2=O)cc1,.,13.7%[46.1 µM],-2.1%,-15.1%,.,-4.0%[46.1 µM],.,0.5%
CCc1ccc(/C=C2\SC(N3CCCC3)=NC2=O)cc1,-4.6%,?,.,16.2%,-11.6%,-1.1%[46.1 µM],-2.4%,.
CC(C)CC(C(=O)NC(C)(C)C)N(CC1CCCO1)C(=O)c1snc(C(N)=O)c1N (stereo unspecified),4.5%,21.7%,.,-10.2%,-5.5%,?,0.1%,.
N#C/C(C(=O)NCc1ccccc1)=C1\SC(CCO)C(=O)N1c1ccccc1 (stereo unspecified),.,?,.,42.4%[activator],-6.5%,-5.1%[46.1 µM],-0.3%,.
CC(CN1CCOCC1)OC(=O)COc1ccc(F)cc1 (stereo unspecified),10.2%,-12.8%,5.7%,11.8%,7.3%,4.9%,4.3%,3.8%
CCn1c(CSCc2ccc(F)cc2)nnc1SCC(=O)N1CCN(c2ccccc2)CC1,2.0%,?,?,?,-7.9%,?,4.2%,1.2%
COc1ccc(N(C(=O)CNC(=O)c2cccs2)C(C(=O)NC2CCCC2)c2cccnc2)cc1 (stereo unspecified),-2.5%,2.4%,.,13.4%,4.5%,12.2%[46.1 µM],2.6%,.
O=C(COC(=O)c1cccc(O)c1)NCc1ccc2c(c1)OCO2,8.9%,.,.,-10.4%,-7.8%,.,-0.3%,.
O=C(O)CCCNS(=O)(=O)Cc1ccccc1,-2.8%,10.5%,11.4%,16.3%,14.1%,14.0%,-0.3%,-1.9%
COc1cc(N=Nc2ccc(C)cc2S(N)(=O)=O)c(C)cc1N,.,?,.,44.6%[activator],6.3%,-7.6%[46.1 µM],.,.
Cc1ccc(Oc2nc(C(F)(F)F)nc3ccccc23)cc1,-12.9%,7.5%,-17.9%,-26.8%,4.7%,4.0%,?,4.4%
CCc1ccccc1NC(=O)C1CCN(S(=O)(=O)c2ccccc2)CC1,.,-1.3%[46.1 µM],-3.5%,-10.7%,.,9.7%[46.1 µM],.,-0.3%
COCC1CCN(C(=O)CCc2nnc(C3(c4ccc(Cl)cc4)CCC3)o2)C1 (stereo unspecified),-17.5%,-3.1%,.,47.9%[activator],4.9%,0.1%,1.4%,.
CCCNC(=O)CN(Cc1ccccc1F)S(=O)(=O)c1ccc(C)cc1,2.0%,-5.6%,-8.8%,24.7%,9.8%,0.0%,6.7%,0.3%
Cc1ccc(C(=O)CNc2nc3c(c(=O)[nH]c(=O)n3C)n2Cc2ccccc2)cc1,5.2%,9.4%,6.0%,-15.1%,3.8%,6.0%,-3.0%,-8.4%
CCc1ccc(NC(=O)CSc2nnc(COc3ccc4c(c3)CCCC4)o2)cc1,6.0%,3.4%,15.8µM*,-9.3%,-6.5%,-3.7%,-1.4%,5.0%
COc1cc(/C=C/C(=O)NCC(=O)N2CCC(N(C)CCN3CCOCC3)CC2)ccc1OC(C)C,.,9.7%[46.1 µM],.,-12.2%,-0.5%,?,1.6%,.
Cc1ccc(C)c(NC(=O)CN(C)C(=O)c2cc3ccccc3o2)c1,.,-3.1%,.,3.0%,-8.8%,?,-0.4%,.
CC(CNC(=O)c1ccc(Br)o1)NC(=O)c1ccc(Br)o1 (stereo unspecified),-1.9%,-0.8%,-1.1%,-20.2%,-18.6%,9.1%,4.4%,4.5%
Cn1nc(-c2ccc(N3CCCCC3)c(NC(=O)c3ccc(Cl)cc3)c2)c2ccccc2c1=O,.,-11.2%[46.1 µM],4.5%,-15.3%,.,1.1%[46.1 µM],.,-1.2%
Cc1nc2ccccc2cc1C(=O)N/N=C/c1ccccc1[N+](=O)[O-],1.2%,0.1%,-7.5%,-13.7%,0.2%,?,-2.3%,-7.1%
CCOC(=O)c1c(NC(=O)c2c(Br)cnn2CC)sc(C)c1C,-4.2%,1.4%,-9.2%,5.5%,0.6%,?,12.4%,-7.5%
O=C(Nc1ccccc1C(=O)NC(Cc1ccccc1)C(=O)O)c1ccccc1 (stereo unspecified),8.7%,21.8%[46.1 µM],.,-7.8%,-1.0%,1.4%[46.1 µM],-0.4%,.
COc1ccc(/C=C\c2onc(C)c2S(=O)(=O)N2CCC(C(=O)NCc3ccco3)CC2)cc1,4.5%,2.2%[46.1 µM],.,?,-6.4%,-4.7%[46.1 µM],0.4%,.
O=C(CSc1nnc(NC(=O)c2cccc(F)c2)s1)NC1CCCC1,4.5%,8.7%,.,48.2%[activator],7.7%,3.6%[46.1 µM],2.9%,.
Cc1c(CC(=O)O)c(=O)oc2c(C)c3occ(-c4ccc(Br)cc4)c3cc12,-3.2%,10.7%[46.1 µM],.,-3.4%,-23.7%,-2.6%[46.1 µM],-1.2%,.
